# hNpr1 antagonist: antagonists of human natriuretic peptide receptor Npr1. P16066. HEK293 hNpr1 GloSensor cGMP, ANP-stimulated luminescence. Potency, µM (doses to about 46.3 µM), without a hit: at the highest dose activity change, negative = inhibition, actives largely listed as inhibitors. actives 1.6% (n = 76,000); active = well fitted inhibition curve with a large enough effect; inconclusive = small, poorly fitted or top-dose-only effect; inactive = no such curve, though single readings can be large or run the other way;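 note: nearly all actives have a fitted effect of over 60% in size; nearly all hits also lower the signal before the agonist is added; a reference antagonist and vehicle were the controls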
# Target sequence (P16066 whole entry, looked up): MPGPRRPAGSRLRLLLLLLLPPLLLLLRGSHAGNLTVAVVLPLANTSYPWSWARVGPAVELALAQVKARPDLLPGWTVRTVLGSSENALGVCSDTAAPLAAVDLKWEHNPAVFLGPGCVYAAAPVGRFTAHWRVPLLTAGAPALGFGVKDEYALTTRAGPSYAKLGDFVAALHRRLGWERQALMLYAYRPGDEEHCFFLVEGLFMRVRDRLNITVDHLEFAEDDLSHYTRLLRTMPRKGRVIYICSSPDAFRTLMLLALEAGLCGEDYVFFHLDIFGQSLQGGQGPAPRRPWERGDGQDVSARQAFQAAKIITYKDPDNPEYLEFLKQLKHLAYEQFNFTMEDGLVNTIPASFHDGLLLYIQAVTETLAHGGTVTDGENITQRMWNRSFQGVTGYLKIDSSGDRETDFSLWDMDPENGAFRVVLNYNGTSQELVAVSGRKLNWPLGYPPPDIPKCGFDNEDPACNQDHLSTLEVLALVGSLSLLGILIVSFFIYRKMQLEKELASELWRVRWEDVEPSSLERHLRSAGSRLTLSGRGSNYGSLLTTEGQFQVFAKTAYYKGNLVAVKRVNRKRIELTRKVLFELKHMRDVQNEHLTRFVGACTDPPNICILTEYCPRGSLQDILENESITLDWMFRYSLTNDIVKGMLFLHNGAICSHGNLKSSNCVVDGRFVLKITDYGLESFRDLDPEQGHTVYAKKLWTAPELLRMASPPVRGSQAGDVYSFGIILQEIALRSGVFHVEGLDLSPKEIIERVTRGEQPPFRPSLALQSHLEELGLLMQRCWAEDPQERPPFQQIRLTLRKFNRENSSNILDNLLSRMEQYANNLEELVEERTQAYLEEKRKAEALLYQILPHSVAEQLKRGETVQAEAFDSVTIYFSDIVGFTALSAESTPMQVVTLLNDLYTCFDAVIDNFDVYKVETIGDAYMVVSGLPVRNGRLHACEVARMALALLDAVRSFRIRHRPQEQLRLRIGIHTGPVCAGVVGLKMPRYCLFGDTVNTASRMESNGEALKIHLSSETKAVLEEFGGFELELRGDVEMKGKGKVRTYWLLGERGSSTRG
#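 Compound pre-incubated 30 min at room temperature on GloSensor-loaded HEK293 cells stably carrying hNpr1 and the pGS-40F cGMP biosensor. Stimulation uses hNppA at 0.1 nM final; luminescence is taken at baseline and 20 min post-agonist.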
# Starred values were filed as active, the others as inactive; ? = inconclusive; & = joins results of further samples; [ ] = another dose, or the depositor's remark. % is set by controls: 0 for no effect and ±100 for the full control effect; potency is the fitted concentration of half-maximal effect. Some of the compounds tested, so the mix of outcomes need not match the whole.
SMILES,hNpr1 antagonist
CC(C)CNC(=O)C(NC(=O)c1ccccc1)C1CCN(C(=O)c2ccccc2)CC1 (stereo unspecified),-1%
O=C(C1CC1)N1CC(Oc2ccc(-c3noc(C4CCOCC4)n3)cc2)C1,10µM*
CN(C)S(=O)(=O)N1CCCC(c2nnc(CN3CCCCC3)n2C)C1 (stereo unspecified),0%
CCCOc1ccc(CN2CCC(C)(c3noc(C4CCOCC4)n3)CC2)cc1,-16%
CO[C@H]1C(=O)N(C(C)C)[C@H]1C1CCN(C(=O)C2CC2)CC1,?
Cc1ccc(CC(=O)NC(C)C(=O)N2CCN(c3ccccn3)CC2)cc1 (stereo unspecified),5%
COc1cccc(CC(=O)N2CCN(c3cc(C(F)(F)F)ncn3)CC2)c1,-22%
Cc1nc(NCCN2CCC(O)CC2)cc(C2CC(O)C2)n1 (stereo unspecified),4%
CCc1ccc(NC(=O)c2ccc(CN3C(=O)NC4(CCOCC4)C3=O)cc2)cc1,?
COc1ccc(CN2CCC3(CC2)COCCN3C(=O)OCc2ccccc2)cc1O,-2%[70.6 µM]
Cc1nnc(NC(=O)CC[C@H]2NC(=O)c3ccccc3NC2=O)s1,0%
CC[C@@]1(O)CCN(C(=O)c2ccccc2OCc2ccccc2)C[C@H]1O,-8%
CC(C)Oc1ccccc1CN1C[C@@H](CO)[C@H](c2ccncc2)C1,-17%
COC(=O)C1=C(C)N=C2SC=C(CC(=O)NCC3CCCO3)N2C1c1cccc(OC)c1 (stereo unspecified),-14%
CCc1nc(NCc2cn[nH]c2-c2ccc(Cl)cc2)c2cnn(C)c2n1,-1%
O=C1CCN(Cc2ccncc2)CCCC(C(=O)Nc2ccccc2CCc2ccncc2)CCN1 (stereo unspecified),4%
CN1CCC(N2CCC[C@H]2c2nc(-c3ccc(OC4CCCCC4)nc3)no2)CC1,-11%[70.6 µM]
Cc1ccc(C(=O)N2CCC(OC3CCN(C)CC3)CC2)cc1C,-2%
COc1ccc(-c2cc(N3CCCC(NC(=O)c4cccc5[nH]ccc45)C3)n[nH]2)cc1 (stereo unspecified),-25%
COc1cc(NC(=O)c2ccc3c(c2)N(C)C2CCCCCN2C3=O)cc(OC)c1 (stereo unspecified),-13%
Cc1ccc(C(=O)NC2CCN(c3cc(C(F)(F)F)ncn3)CC2)s1,-20%
C[C@@]12CC[C@H]3O[C@H](COc4ccccc4)OC[C@@]3(C)C1CC[C@@H](O)C2CC(=O)N1CCCC1 (stereo partly specified),2%
O=C(Cn1cnnn1)N1CC(c2noc(C3CCCN3CC3CC3)n2)C1 (stereo unspecified),7%
COC(=O)C1=C(C)NC(=O)NC1c1ccc(Cl)cc1 (stereo unspecified),0%
CCC(=O)Nc1ccc2nnc(-c3ccc(C(=O)Nc4ccc5c(c4)OCCO5)cc3)n2c1,-18%
O=C(CC1CCCN(c2cn[nH]c(=O)c2)C1)N1CCN(c2ccccn2)CC1 (stereo unspecified),1%
CC(C)(C)CN[C@@H](Cn1ccc(=O)[nH]c1=O)C(=O)O,13%[70.6 µM]
COc1ccccc1OC1(C(=O)O)CCN(Cc2cccnc2)CC1,-2%
CN(C)C(=O)C1CN(C(=O)Nc2cccc(Cl)c2F)CC12CCOCC2 (stereo unspecified),6%
CCc1ccc(NC(=O)N2CCC(OC3CCN(S(C)(=O)=O)CC3)CC2)cc1,-1%
COc1ccccc1-c1[nH]nc2ncc(C(=O)NCC3CCOCC3)nc12,1%[70.6 µM]
O=C(c1cc(F)ccc1F)N1CCN(c2cc(-c3ccc(F)cc3)[nH]n2)CC1,-16%
OCc1cccc(-c2ccc3ncc(Nc4ccccc4F)n3n2)c1,-25%[70.6 µM]
O=C(Nc1ccccc1)N[C@H]1C[C@H]2C(=O)NC[C@@H](CCC(=O)N3CCc4ccccc43)N2C1,7%
Cn1cnc(S(=O)(=O)N2CC(Oc3ccc(-c4nc(-c5ccccc5)no4)cc3)C2)c1,?
Cc1nc(N2CCC(C(=O)Nc3ccc(F)c(Cl)c3)CC2)cc(C(F)(F)F)n1,11µM*
Cc1cc(CN2CCC(N3Cc4ccccc4C3=O)CC2)on1,-2%[70.6 µM]
CCc1ncc(C(=O)N2CCCC(CCc3cccc(C(F)(F)F)c3)C2)cn1 (stereo unspecified),-1%
COc1ccc(C2Cn3cnc(C(=O)N4CCC(C(=O)NCC5CCCCC5)CC4)c3CO2)cc1 (stereo unspecified),-2%
O=c1[nH]c(N2CCOCC2)nc2c1CCN(Cc1ccccc1C(F)(F)F)CC2,4%
COCCn1c(=O)c2c(n1Cc1ccccc1)CN(Cc1cncc(OC)c1)CC2,-1%[70.6 µM]
COCC(=O)N(C1CCOCC1)C1CCN(C(=O)c2cc(F)ccc2F)CC1,6%
CCc1nc2cc(N3CCC(C(=O)NCc4cccc(F)c4)CC3)cnc2nc1CC,0%
CC1CCN(C(=O)c2cc3c(s2)CCC(C(=O)NCCCN2CCOCC2)C3)CC1 (stereo unspecified),-2%
COc1ccc(C(=O)N2CCC3(CC2)CC(=O)N(c2ccccc2)c2ccccc2O3)cc1,23%
CCC(=O)N1CCC(C(NC(=O)c2ccccc2)C(=O)NCc2ccccc2)CC1 (stereo unspecified),-2%
CN(Cc1cccc2cnccc12)C(=O)c1cc(COc2ccc(F)cc2F)on1,11µM*
Cn1ncc(N2CCCC(CC(=O)NC3CCCCC3)C2)cc1=O (stereo unspecified),-16%
Cc1nnc([C@H]2CCN(Cc3ncc[nH]3)C2)o1,3%[70.6 µM]
Cc1c(C(C)NC(=O)c2ccc(C#N)nc2)cnn1-c1ccc(F)cc1F (stereo unspecified),?
CC(C)[C@@H]1CN(C(=O)c2ccc(F)cc2F)C[C@H]1NS(=O)(=O)N(C)C,0%
CN(C)c1ncc2c(n1)C(C)(C(=O)Nc1ccc(Cl)cc1)CCC2 (stereo unspecified),-16%[70.6 µM]
O=C(NC[C@H]1Cn2c(-c3ccc4c(c3)OCO4)cnc2CO1)c1ccc2c(c1)OCO2,-27%[70.6 µM]
Cn1cccc1C(=O)N1CCN(C(=O)c2nnn3c2COC(c2ccc(Cl)cc2)C3)CC1 (stereo unspecified),-14%
Cc1cnc(C(=O)N[C@@H]2CN(C3CCOCC3)C[C@H]2CN(C)C)cn1,-4%
C#CCOc1ccccc1-c1c(-c2ccccc2)ncn1CCCO,2%
Cc1ccc(-c2cc(-c3cccnc3)c3cncn3c2)cn1,-14%[70.6 µM]
O=C(NCc1ccc(C(F)(F)F)cc1)C1CN(Cc2ccccc2)C(=O)N1 (stereo unspecified),-6%
CN(Cc1ccccc1C(F)(F)F)C(=O)Cc1cccc(Cl)c1,0%[70.6 µM]
Cc1ccccc1S(=O)(=O)N1CCN(C2CCN(Cc3ccccn3)C2=O)CC1 (stereo unspecified),-16%

# Next part
SMILES,hNpr1 antagonist
O=C1CC(c2noc(-c3cc(F)ccc3F)n2)CN1c1ccc(F)c(Cl)c1 (stereo unspecified),-3%
COc1ccc(S(=O)(=O)N[C@H](C)c2onc(-c3cccnc3)c2C(=O)O)cc1,-4%[70.6 µM]
COCCNC(=O)[C@@H]1Cc2cn(Cc3cccnc3)c3cccc(c23)[C@H](CC(C)C)N1,-3%[70.6 µM]
CC(=O)c1cccc(NC(=O)Cn2c(N3CCCCC3)nc(C)c(C)c2=O)c1,-14%
CN1C(=O)CCCCC1C(=O)NCc1ccc(F)cc1 (stereo unspecified),-2%
CC(C)c1cc(C(=O)NCCc2nc(-c3cccnc3)no2)nc2ncnn12,5%
O=C(N[C@H]1CCN2C(=O)c3cc(-c4ccc5c(c4)OCO5)ccc3NC(=O)[C@H]12)c1cccs1,-1%
COc1cccc(N2CC(C(=O)NCC3CC3)NC2=O)c1 (stereo unspecified),0%[70.6 µM]
CCN(C(=O)CN1C(=O)NC(c2ccc(Cl)cc2)C2=C1COC2=O)c1ccccc1 (stereo unspecified),2%
O=C(Nc1cccc(C(F)(F)F)c1)N[C@H]1CO[C@H]2[C@@H]1OC[C@@H]2Nc1nccc(-c2ccc(-c3ccccc3)cc2)n1,1%
Cc1cccc(Nc2nc(N)nc(CN3CCOCC(O)C3)n2)c1 (stereo unspecified),-12%
CCOc1ccccc1CNC(=O)c1nnn2cc(C)[nH]c(=O)c12,1%
Cc1ccc(-n2c(C3CCN(C(=O)c4cc(-c5ccc(F)cc5)n[nH]4)CC3)n[nH]c2=O)cc1,-11%
COc1ccc(Cl)cc1C(=O)N1CCC(n2cc(-c3nc(C)no3)nn2)C1 (stereo unspecified),-11%
O=C(O)Cc1cc(C2CCN(Cc3cn(-c4ccccc4)nn3)CC2)n[nH]1,6%
Cc1ccc(C)c(NC(=O)N2C[C@H](c3nc(-c4ccncc4)no3)[C@@H](C)C2)c1,-15%
CC(C)c1ccc(S(=O)(=O)N2[C@@H]3CC[C@H]2CC(NC(=O)c2ccncc2)C3)cc1 (stereo partly specified),-1%
Cc1ccc(NC(=O)NC[C@H]2O[C@@H](CC(=O)N3CCN(c4ccccc4)CC3)[C@H](O)[C@@H]2O)cc1,0%
COc1ccccc1CC(=O)NC1CCN(C(=O)c2cc3c(=O)[nH]c(C)cn3n2)CC1,21%
CCOC(=O)N1CCC(c2nnc(CN3CCCCCC3)n2C)CC1,-5%
CN(CCc1ccccn1)[C@H]1[C@@H]2OC[C@@H](O2)[C@@H](NCc2ccc(-c3ccccc3)cc2)[C@@H]1O,?
CS(=O)(=O)N1CCCCCNC(=O)CC1c1ccccc1 (stereo unspecified),-5%
COc1ccccc1-c1cnc(NC(=O)c2ccc(Cl)cc2)c2c1CCO2,-23%[70.6 µM]
COCC(=O)N1CC2(Cc3ccccc3N(C(C)=O)C2)C1,5%&-14%[70.6 µM]
CCCNC(=O)C(NC(=O)c1ccc(C)cc1)C1CCN(C(=O)c2ccc3c(c2)OCO3)CC1 (stereo unspecified),-3%
CCCCN1CCC(CNC(=O)c2cccc(C3CCNC3)c2)CC1 (stereo unspecified),0%
O=C(c1ccc(OC(F)(F)F)cc1)N1CCC(n2cc(-c3nc(C4CC4)no3)nn2)C1 (stereo unspecified),-29%
CC(C)n1nc(OC(C)(C)C(=O)Nc2ccccn2)c2cc(CN3CCOCC3)ccc21,-13%[70.6 µM]
CC(=O)Nc1ccc2c(c1)S(=O)(=O)N=C(CC(C)C)N2CC(C)C,3%
Cc1ccc(Cn2c(C3CCN(C(=O)c4ccc(F)c(Cl)c4)CC3)n[nH]c2=O)cc1,-10%
O=C(C1CC1)N(C1CCOCC1)C1CCN(S(=O)(=O)c2ccc(F)c(Cl)c2)CC1,1%
Cc1ccc(CN2CCC(CN(C)C(=O)c3ccc(C4CCCN4)s3)CC2)o1 (stereo unspecified),3%
CCOCc1nc(C2CCCN(C(=O)c3ccc(F)c(F)c3)C2)no1 (stereo unspecified),8%
CN1CCCN(C(=O)CCC[C@@H]2[C@H]3CCCN4CCC[C@@H](CN2Cc2ccccc2)[C@@H]34)CC1,3%
COC[C@@H]1CN(C(=O)Cc2ccc(OC)cc2)C[C@H]1c1nc(C)no1,0%
Cc1ccccc1N1CCN(C(=O)c2ccc(Cn3ccn4nc5c(c4c3=O)CCCC5)cc2)CC1,-28%
CC(C)CC(=O)NCCc1noc(-c2ccncc2)n1,0%
CC(C)NC(=O)c1cccc2c1CCN2C(=O)C1CC1,-2%
CC1=C[C@@H](CN2CCN(c3ccccc3)CC2)[C@H](C(C)C)C[C@H]1Cc1nnc(-c2cncn2C)o1,0%
CN1C(=O)[C@@H]2C[C@@H](O)CN2C2(CN(Cc3ccc(F)cc3)C2)C1=O,1%[70.6 µM]

# A run of entries from further up, as a working copy:
SMILES,hNpr1 antagonist
CC(C)n1nc(OC(C)(C)C(=O)Nc2ccccn2)c2cc(CN3CCOCC3)ccc21,-13%[70.6 µM]
CC(=O)Nc1ccc2c(c1)S(=O)(=O)N=C(CC(C)C)N2CC(C)C,3%
Cc1ccc(Cn2c(C3CCN(C(=O)c4ccc(F)c(Cl)c4)CC3)n[nH]c2=O)cc1,-10%
O=C(C1CC1)N(C1CCOCC1)C1CCN(S(=O)(=O)c2ccc(F)c(Cl)c2)CC1,1%

# The list goes on:
SMILES,hNpr1 antagonist
Cc1cc(=O)n(CC(=O)Nc2cccc(Cl)c2C)c(N2CCN(c3ccccc3)CC2)n1,2%
COCc1cccc(-c2ccc3c(n2)c(=O)ncn3Cc2ccccc2)c1,-1%[70.6 µM]
COCCN1C(=O)CS(=O)C12CCN(C(=O)Nc1ccc3c(c1)OCCO3)CC2 (stereo unspecified),1%
COc1ccc(-c2cc(C[C@@H]3CC[C@H](O)[C@@H](CNC4CCN(C(C)=O)CC4)O3)no2)cc1,?
Cc1ccc(CN2CCN(C3CCN(Cc4ccccn4)CC3)CC2CCO)o1 (stereo unspecified),7%
CN(C)[C@@H]1CN(C(=O)c2ccccc2)CC[C@]1(O)c1ccccc1,4%
O=C1NC2(CCN(C(=O)OCc3ccccc3)C2)N=C1c1cccnc1 (stereo unspecified),-2%
Cc1cnc(-c2cccnc2)n1CC1CCNCC1,-2%

# Shown with bars between the fields: part of the list above.
compound | hNpr1 antagonist
COCC(=O)N1CC2(Cc3ccccc3N(C(C)=O)C2)C1 | 5%&-14%[70.6 µM]
CCCNC(=O)C(NC(=O)c1ccc(C)cc1)C1CCN(C(=O)c2ccc3c(c2)OCO3)CC1 (stereo unspecified) | -3%
CCCCN1CCC(CNC(=O)c2cccc(C3CCNC3)c2)CC1 (stereo unspecified) | 0%
O=C(c1ccc(OC(F)(F)F)cc1)N1CCC(n2cc(-c3nc(C4CC4)no3)nn2)C1 (stereo unspecified) | -29%
CC(C)n1nc(OC(C)(C)C(=O)Nc2ccccn2)c2cc(CN3CCOCC3)ccc21 | -13%[70.6 µM]
CC(=O)Nc1ccc2c(c1)S(=O)(=O)N=C(CC(C)C)N2CC(C)C | 3%

# From PubChem BioAssay
